Screens from PubChem.
UUG fidelity: modulators of yeast start codon fidelity, primary screen, whole organism, S. cerevisiae, single point, plate reader. S. cerevisiae UUG-firefly luciferase reporter, luminescence/redox ratio. 0.13% of 350,000 active. activity score, % at 18.7 µM;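 active = replicate mean at a twofold rise or more, about +100% in these data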;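 also: firefly luciferase made from a UUG start codon reports start codon fidelity; reporter light over untreated wells divided by growth signal over untreated wells; some hits fall short of that in this replicate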
CSC inhib: cancer stem cell viability inhibitors, primary screen, luminescence | cancer stem cell-like cells viability | inhibition, % at 7.5 µM | 1.1% of 300,000 active;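 active = mean at 75% or more and at least half the replicates too; inconclusive = mean and replicates disagree; tested in HMLE shEcad cells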;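 also: 0% = median of negative and 100% = median of positive control wells; the first replicate is given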
eIF4H inh: human eIF4H binding inhibitors, primary screen, translation initiation inhibitor project, biochemical, uHTS, fluorescence polarization. Eukaryotic translation initiation factor 4H (Homo sapiens), Q15056. eIF4H fluorescence polarization binding assay. inhibition, % at 35 µM. 0.94% of 290,000 active. AID 2012, 2009;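 active = 50% or more with normal probe brightness, or confirmed in later tests; inconclusive = above 50% with abnormal brightness, or retests that disagree; inactive = below 50% or failed in later tests; about a fifth of its hits are not listed in these tables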;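 also: calls also rest on retests at 20 µM and on dose response follow-up; 0% = protein and probe with vehicle and 100% = probe without protein; strong numbers were not always called active; many hits fall short of the cut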
HIV Env fusion: inhibitors of HIV-1 Env-driven cell-cell fusion, primary screen, HeLa-JRFL effector, CEM21 target cells, luciferase; inhibition, % at 12.3 µM; 1.1% of 360,000 active; AID 651610, 2012;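 active = mean replicate inhibition score of at least 50 and every replicate individually at or above 50; inconclusive = only one of the two criteria met; inactive = mean below 50 and not all replicates reaching 50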;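 also: 0% = plate neutral controls and 100% = maraviroc near 300 nM; one replicate is shown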
Rce1 inhib: yeast Rce1p protease inhibitors, primary screen, biochemical, fluorescence, cell-free homogeneous; AID 2563, 2010; yeast membranes, quenched prenylated peptide cleavage fluorescence; 0.27% of 290,000 active; CAAX prenyl protease 2 (Saccharomyces cerevisiae (strain ATCC 204508 / S288c)), Q03530; calls only;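 active = fall in fluorescence gain of 50% or more versus controls, with final raw signal at or below 3038400; inconclusive = same 50% fall but final raw signal above 3038400; inactive = fall in fluorescence gain under 50%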;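 also: plate controls were neutral control wells for no effect and wells lacking membranes for full effect; tested at 10 µM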
Target sequence (Q03530 whole entry, looked up): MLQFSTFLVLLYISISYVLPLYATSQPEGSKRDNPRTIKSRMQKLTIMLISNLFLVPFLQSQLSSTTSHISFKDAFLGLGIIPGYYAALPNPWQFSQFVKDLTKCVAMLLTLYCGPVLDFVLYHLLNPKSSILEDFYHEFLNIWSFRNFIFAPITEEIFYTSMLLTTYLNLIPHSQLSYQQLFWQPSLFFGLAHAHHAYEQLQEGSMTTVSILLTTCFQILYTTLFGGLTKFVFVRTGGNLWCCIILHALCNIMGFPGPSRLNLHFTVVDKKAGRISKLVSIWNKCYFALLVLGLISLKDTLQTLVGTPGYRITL
PABP FP inh: PABP poly(A) RNA binding inhibitors, primary screen, biochemical, fluorescence polarization, uHTS | Polyadenylate-binding protein 1 (Homo sapiens), P11940 | inhibition, % at 35 µM | 1% of 290,000 active | AID 2014, 2009;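 active = 50% or more with normal probe brightness, or confirmed in later tests; inconclusive = above 50% with abnormal brightness, or retests that disagree; inactive = below 50% or failed in later tests; about a fifth of its hits are not listed in these tables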;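 also: calls also rest on retests at 20 µM and on dose response follow-up; controls were probe without protein and protein plus probe with vehicle; some compounds called inactive have numbers as strong as hits; many hits fall short of the cut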
Target sequence (P11940 whole entry, looked up): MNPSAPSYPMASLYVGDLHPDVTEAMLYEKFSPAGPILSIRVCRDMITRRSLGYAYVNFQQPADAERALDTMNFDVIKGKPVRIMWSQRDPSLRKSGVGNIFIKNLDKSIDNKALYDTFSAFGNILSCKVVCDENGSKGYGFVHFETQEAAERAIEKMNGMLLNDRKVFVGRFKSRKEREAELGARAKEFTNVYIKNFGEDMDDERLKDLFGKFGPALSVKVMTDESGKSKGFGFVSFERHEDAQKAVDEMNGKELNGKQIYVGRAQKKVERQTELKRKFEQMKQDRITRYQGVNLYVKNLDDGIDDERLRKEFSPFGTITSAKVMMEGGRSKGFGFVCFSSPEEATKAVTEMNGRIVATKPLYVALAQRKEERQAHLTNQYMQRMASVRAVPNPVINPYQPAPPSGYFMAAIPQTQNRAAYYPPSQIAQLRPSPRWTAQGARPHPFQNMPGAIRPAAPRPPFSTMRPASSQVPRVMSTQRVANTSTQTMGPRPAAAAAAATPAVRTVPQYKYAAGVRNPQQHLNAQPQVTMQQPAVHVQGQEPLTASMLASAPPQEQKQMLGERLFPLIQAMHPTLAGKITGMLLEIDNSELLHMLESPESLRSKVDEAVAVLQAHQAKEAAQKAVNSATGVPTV
MT1-MMP act inh: blockers of MT1-MMP proenzyme processing, primary screen, HT1080 RFP-PRO-GFP cells, GFP/RFP fluorescence; Matrix metalloproteinase-14 (Homo sapiens), P50281; GFP/RFP ratio fluorescence, overnight; percent of plate control window, DMSO zero; GFP/RFP ratio change, % at 20 µM; 0.061% of 360,000 active;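 active = GFP/RFP ratio change of at least 30% with cell ATP level not reduced by more than half and red fluorescence within 50% of control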; also: strong numbers were not always called active
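Test system: HT1080 cells expressing an RFP-PRO-GFP fluorescent reporter construct / Compound dosing: single-point 20 µM compound, 1% DMSO / Schedule: cells overnight before dosing, compound overnight, 37 °C, 5% CO2 / Evaluation: GFP/RFP fluorescence ratio / Control set: DMSO and RFP-L50D-GFP cell wells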
MT1-MMP act inh RFP: second read-out of MT1-MMP act inh, no call of its own (marks repeat the call); RFP signal change, %; measured here: RFP expression control read;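 0 = vehicle wells; hits needed this value within 50% of zero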
* = called active by the depositor; i = inactive; ? = inconclusive; · = no result given; + = active, no number.

The line under a structure holds: UUG fidelity	CSC inhib	eIF4H inh	HIV Env fusion	Rce1 inhib	PABP FP inh	MT1-MMP act inh	MT1-MMP act inh RFP
COc1ccc(C(=O)COc2ncnc3cc(Cl)ccc23)cc1
 : -7	38	-5	-13	i	4	4	6
CCN(C[C@H]1N[C@@](C)(C(=O)OC)[C@H]2C(=O)N(Cc3ccccc3)C(=O)[C@@H]12)C(=O)c1ccc(F)cc1
 : 6	·	·	17	·	·	-1	5
COc1cc(/C=N/NC(=O)c2ccc(-c3ccccc3)cc2)cc(OC)c1OC
 : ·	2	-2	-95	i	26	20	4
CCOC(=O)c1cnc2ccc(C(=O)OC)cc2c1NCc1ccco1
 : ·	·	-1	·	i	2	·	·
N#C/C(=C\c1ccncc1)c1nc2c(s1)CCCC2
 : ·	-4	9	-48	i	?	0	1
O=[N+]([O-])c1cc(S(=O)(=O)NC2=NCCCCC2)ccc1NCC1CCCCC1
 : ·	-9	0	17	i	-9	4	-14
N#CC1(NC(=O)CN2C(=O)c3ccc([N+](=O)[O-])cc3C2=O)CCCCC1
 : -14	-4	·	·	·	·	-3	0
COc1cc(N2N=C(c3ccccc3)CC2c2ccccc2)c(C=O)cc1C=O (stereo not given)
 : -1	3	-7	-10	i	-7	-6	-7
C=CCNC(=O)/C(=C\c1cccc([N+](=O)[O-])c1)NC(=O)c1ccccc1
 : ·	-24	7	11	i	1	1	4
CC(C)(C)OC(=O)N1CCc2onc(-c3ccc([N+](=O)[O-])cc3)c2C1=O
 : -18	·	·	9	·	·	4	-1
Cc1cc(C)cc(NC(=O)CSc2nnc(-c3ccccc3Br)o2)c1
 : -12	1	1	-40	·	-1	8	5
Cc1ccc(C(NC(=O)c2ccccc2S(C)(=O)=O)c2ccccc2)cc1 (stereo not given)
 : -1	8	-2	-1	i	-4	-2	3
CCOc1ccc(C(=O)NNC(=O)CN2C(=O)NC3(CCCC3)C2=O)cc1
 : -5	2	·	·	·	·	0	3
COc1cccc(C(=O)NC2CCN(CC(=O)NCc3ccccc3OC)CC2)c1
 : -16	-4	-3	-51	i	1	5	-2
O=C(N/N=C/c1ccco1)c1cccc(NC(=O)c2ccccc2Cl)c1
 : -28	-2	-7	7	·	-1	1	0
COCCNC(=O)Cn1c(=O)n(CCCCCC(=O)NCc2ccc3c(c2)OCO3)c(=O)c2sccc21
 : ·	-6	3	·	i	17	·	·
CSc1cccc(NC(=O)CSc2ccccc2)c1
 : -5	8	3	-4	·	-4	-1	2
CN(Cc1ccccc1)C(=O)c1ccc(NC(=O)Cc2cccc(NC(=O)C3CCN(C(=O)C4CCC4)CC3)c2)cc1
 : -3	-8	·	3	·	·	-1	-1
CC(c1ccccc1)C(NC(=O)OCC1c2ccccc2-c2ccccc21)C(=O)O (stereo not given)
 : -4	6	·	-22	i	·	2	3
Cc1noc(C)c1C(=O)NC(C)c1ccc2c(c1)OCO2 (stereo not given)
 : -8	-12	-3	16	i	-2	0	2
S=C(NC1CC2CCC1C2)N1CCN(c2cccc(Cl)c2)CC1 (stereo not given)
 : ·	1	-8	7	i	14	-1	-9
CCN1CCN(CCC(=O)Nc2cccc(OC)c2)CC1
 : 4	·	-4	-98	i	10	1	3
Cc1[nH]c2ccccc2c1/C=C(/C#N)C(=O)NC(C)C
 : -15	-8	-3	12	i	-2	-10	-5
COc1ccc(N2CCN(S(=O)(=O)c3ccc4c(c3)NC(=O)C(C)C(=O)N4)CC2)cc1 (stereo not given)
 : -7	8	10	·	i	2	1	-1
CCOC(=O)CC1COc2ccccc2N1C(=O)c1cccc([N+](=O)[O-])c1 (stereo not given)
 : -20	-5	-4	18	i	-7	-2	-1
O=C(CCCl)Nc1nc2c(s1)CCc1ccccc1-2
 : ·	47	-11	21	i	-3	-7	1
Nc1cccc(C(=O)Nc2ccco2)c1
 : -12	0	-6	-35	i	-4	-11	2
CCOC(=O)c1sc2nc(C)nc(Nc3ccccc3)c2c1C
 : ·	-7	3	-3	i	18	0	1
COc1ccc(NC(=S)N2CCCC(c3nc4ccc(C)cc4[nH]3)C2)c(OC)c1 (stereo not given)
 : ·	-9	4	-6	i	-2	2	3
CC(=O)N1CCN(CC(=O)Nc2cc(S(=O)(=O)N3CCCCC3)ccc2C)CC1
 : 1	-7	·	6	·	·	0	4
COc1ccc(NS(=O)(=O)c2ccc(O)c(C(=O)OCC(=O)N3CC(C)OC(C)C3)c2)cc1 (stereo not given)
 : 3	-7	-13	·	i	-5	2	-2
N#Cc1nc(-c2ccccc2)oc1NCCN1CCCCC1
 : -3	-8	-2	-30	?	1	11	7
CN(C)c1nc(-c2cccnc2)nc(-c2ccc(Cl)cc2)c1C#N
 : -13	15	-4	-28	i	1	4	-1
CC(=O)Nc1sc(C)c(C)c1C(=O)OCC(=O)Nc1ccccc1C(F)(F)F
 : -15	·	·	-4	·	·	0	0
O=C(Nc1cccc(Cl)c1Cl)c1csc([C@H]2C[C@H](O)[C@@H](CO)O2)n1
 : -19	·	·	-107	·	·	-2	1
CNC(=O)Nc1ccc(S(N)(=O)=O)cc1
 : -27	-9	-3	12	i	1	1	3
O=C(Nc1ccc(F)cc1)Nc1cnccn1
 : -10	-12	-3	4	i	-7	-2	0
COc1cccc2c(C)c(C(=O)O)[nH]c12
 : -51	-14	?	18	i	?	-5	1
O=C(NC1=CC(=O)c2ccccc2C1=O)c1ccccc1
 : -27	·	·	-2	·	·	-112	7
CCCc1[nH]nc2c1C(c1ccoc1)C(C#N)=C(N)O2 (stereo not given)
 : ·	51	6	8	i	13	2	3
O=c1[nH]c(S)nc2sc3c(c12)CCCC3
 : -25	2	10	·	i	19	2	5
O=C(c1[nH]c(C(F)(F)F)nc1-c1ccccc1)N1CCN(C/C=C/c2ccccc2)CC1
 : -10	·	·	-2	·	·	4	1
CC(C)CN(CC(C)C)CC(O)COc1ccc([N+](=O)[O-])cc1 (stereo not given)
 : -12	5	-9	27	i	8	20	7
Cc1nnc2c3ccccc3c(-c3cccs3)nn12
 : ·	-5	7	13	i	-8	6	15
CCn1c(SCC(=O)NC(=O)c2ccccc2OC)nc2ccccc21
 : -11	1	-5	1	i	-1	1	6
COc1ccc(OC)c(NC(=O)c2ccc(-c3cccs3)cc2)c1
 : ·	38	-11	7	i	20	1	6
COc1ccccc1/C=C/C(=O)NCc1cccnc1
 : ·	2	0	3	i	-17	·	·
O=C(Nc1ccnn1C1CCN(Cc2cccc(OCCO)c2)CC1)c1cccc(F)c1
 : -14	-8	-5	·	i	-14	6	5
O=C(Cc1ccc(NC(=O)C2CCCN(C(=O)CCc3ccccc3)C2)cc1)Nc1cccc(C(=O)N2CCCC2)c1 (stereo not given)
 : -22	·	·	16	·	·	-4	-10
O=C(NCc1ccco1)C(=O)NCc1ccccc1Cl
 : -11	-6	2	-15	i	12	1	1
CC(C)(C)[C@H]1CCC(=O)N([C@H](CSc2ccc(Br)cc2)Cc2ccccc2)CC1
 : -15	2	·	20	·	·	-14	-10
Cc1ccc(N/C=C/C(=O)c2ccccc2)cc1C
 : -41	-2	-4	-252	i	-11	-2	4
CCN(CC)S(=O)(=O)c1ccc(N)cc1
 : -21	-9	-2	-10	i	-8	-4	3
CCCn1cnc2cc(NC(=O)c3cccs3)ccc21
 : -11	6	4	-22	i	-12	1	-3
COCC(C)n1c(C)cc(C(=O)COC(=O)c2nn(C)c(=O)c3ccccc23)c1C (stereo not given)
 : -2	-11	·	9	·	·	3	-1
CN1C(=O)c2ccc(C(=O)Nc3cccnc3)cc2C1=O
 : -18	-18	-4	-11	i	4	-1	3
CCn1cc(C(=O)N[C@H](C(=O)NCCCN2CCOCC2)C(C)C)c(=O)c2cc3c(cc21)OCO3
 : -22	-17	-6	2	i	9	0	6
COC(=O)COc1ccc(S(=O)(=O)N2CCOCC2)cc1
 : -2	-8	5	-38	i	-1	-1	2
O=C(Cc1cn2ccsc2n1)OCc1ccccc1
 : -24	5	-5	·	i	1	-1	5
CCC(C(=O)OCC(=O)Nc1cccc(C(C)=O)c1)c1ccccc1 (stereo not given)
 : -11	-11	-3	-15	·	-8	2	2

(continued)
The line under a structure holds: UUG fidelity	CSC inhib	eIF4H inh	HIV Env fusion	Rce1 inhib	PABP FP inh	MT1-MMP act inh	MT1-MMP act inh RFP
O=C(CSc1nnc(NC(=O)c2c(F)cccc2F)s1)Nc1ccc(F)cc1
 : ·	5	1	-9	i	1	5	7
CCC1S/C(=N/N=C/c2cccs2)NC1=O (stereo not given)
 : -19	-11	-1	·	i	-9	2	4
CC(C)C1Oc2ccccc2N(CC(=O)N(C)C2CCCCC2)C1=O (stereo not given)
 : 17	·	0	5	i	2	3	3
O=C(O)CCNS(=O)(=O)c1ccc2c(c1)OCCCO2
 : ·	3	-3	3	i	2	-1	6
CC(C)c1nc(SCc2ccccn2)c2c(=O)n(C)c(=O)n(C)c2n1
 : -19	-11	-7	-78	i	8	-4	-8
CC(=O)Nc1ccc(Cl)cc1C1COC(=O)C1=N (stereo not given)
 : ·	-5	1	1	+	7	-8	-2
COc1cc(=O)[nH]c(SCC(=O)Nc2nc3c(s2)CCCC3)n1
 : ·	-2	3	2	i	1	-1	-2
O=S(=O)(c1ccccc1Cl)N1CCCC1c1nc(-c2cccc(Cl)c2)no1 (stereo not given)
 : -8	3	-17	47	i	-4	-1	-2
CN(C(=O)c1ccccn1)C1(C(=O)NC2CCCCC2)CCCCC1
 : -3	-22	-6	16	i	-10	3	9
CCC(=O)NNc1ncnc2c1cnn2-c1cccc(C)c1
 : -4	-12	3	21	i	4	5	9
O=C(O)CCCC(=O)N1N=C(c2c(-c3ccccc3)c3cc(Cl)ccc3[nH]c2=O)CC1c1cccs1 (stereo not given)
 : ·	10	1	6	i	10	-10	-4
CCCCNC(=O)c1nn2c(C(F)(F)F)cc(-c3ccc(OC)cc3)nc2c1Br
 : -7	-7	-10	10	·	6	-1	-2
Cc1nc(SCC(C)C)[nH]c(=O)c1Cc1ccccc1
 : ·	-5	-11	·	i	7	1	-4
O=C(Cc1ccc(F)cc1)Nc1cc(S(=O)(=O)N2CCOCC2)ccc1N1CCCCC1
 : -4	·	·	33	·	·	-1	3
O=[N+]([O-])c1ccc(Cl)c(S(=O)(=O)/N=C(/c2ccccc2)N2CCOCC2)c1
 : -8	8	4	29	i	4	3	-3
CCc1nnc(NC(=O)c2ccc(OC)cc2)s1
 : -10	6	10	9	i	7	-4	-2
COc1ccc(CC(=O)Nc2ccc(-c3cn4ccccc4n3)cc2)cc1
 : -15	13	-11	·	i	-1	7	3
C[C@H](NC(=O)c1ccc(Br)cc1)C(=O)NCc1ccc(S(N)(=O)=O)cc1
 : 10	-13	-8	14	·	-2	-1	3
O=c1c2cn[nH]c2[nH]c(=S)n1-c1ccccc1Cl
 : ·	-7	7	15	i	2	-2	4
CN(c1ccc(C(=O)NCc2ccncc2)cc1)S(=O)(=O)c1ccc(Cl)cc1
 : -9	6	-1	22	i	-5	-14	-21
COC(=O)C1=C(C)Nc2ncnn2C1c1ccc(OCc2ccccc2)cc1 (stereo not given)
 : -15	6	-7	·	i	-16	2	-2
COc1ccc(OC)c(C(=O)N2CCC(CCC(=O)NC3CC3)CC2)c1
 : -14	6	-8	-3	i	4	1	1
COC(=O)C1=C(C)OC(N)=C(C#N)C1c1cc(OC)ccc1OC (stereo not given)
 : -8	-1	-7	·	i	-11	-12	-5
